# Source: PubChem BioAssay (Broad Institute)
# Tg IFNy HTS: inhibitors of Toxoplasma gondii growth with IFN-gamma. Toxoplasma gondii growth in IFN-gamma-treated host cells; active compounds read low; reference of the scale not given here. activity change, negative = inhibition, %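 (about 20 µM by stock and volumes)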. actives 3.8% (n = 69,000). AID 1259416;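 active means below -70%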;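 further: host cells are HeLa cells infected with Toxoplasma gondii; parasite growth read as luciferase light; one replicate is shown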
# The depositor's hits bear a star; i = inactive; & = joins results of further samples. Only part of the results is shown (hit frequency here may not be typical).
SMILES,Tg IFNy HTS
CC(C)Oc1cc(N[C@H]2CCCC[C@@H]2O)nc(N)n1,-9.4
COc1ccccc1NC(=O)c1cncc(NS(=O)(=O)c2ccc(Br)cc2)c1,24.9
CCOc1ccccc1NC(=O)c1ccc(COc2cccc(C)c2)o1,-51.5
O=C(NCc1cnc2n1CCN(C(=O)c1ccccn1)C2)C1CC1,100.4
Cc1ccccc1OCC(=O)NCCc1csc(-c2ccc(F)cc2)n1,23.5
COc1ccccc1NC(=O)c1c(O)c2cccnc2n(-c2ccc(F)cc2)c1=O,99.2
CC(=O)N1Cc2cncn2CC(COCC(=O)N2CCCC2)C1 (stereo not given),-3.1
COc1ccc(C)cc1NC(=O)C(=O)NCCc1csc(-c2ccc(Cl)cc2)n1,-55.3
NC(N)=NCc1cccc(I)c1,-5.5
CCC(C)NC1CC2(CCN(c3ncccn3)CC2)Oc2ccccc21 (stereo not given),78.4
COCC(=O)N1CCC2(CC1)CN[C@H](CO)c1c2c2ccc(OC)cc2n1C,-27.4
CO[C@H]1CN(C)C(=O)c2cc(NC(=O)C3CCOCC3)ccc2OC[C@H](C)NC[C@@H]1C,-65.1
Cc1cnc(-n2cnnc2)c(-c2ccnc3c2ccn3C)c1,-5.6
COCCCN1CC2(CCCCN2C(=O)c2cccs2)CC1=O (stereo not given),1.9
C[C@H]1CN([C@@H](C)CO)C(=O)c2cc(C#Cc3ccccc3)cnc2O[C@H]1CN(C)C(=O)c1ccccc1,-14.2
COc1ccc2c3c([nH]c2c1)[C@@H](CO)N(Cc1ccc(F)cc1)CC31CN(C)C1,139.4
CN(C)C1COC2(CCN(S(=O)(=O)c3cn(C)cn3)CC2)C1 (stereo not given),185.0
CCOc1ncccc1-c1cccc(C(=O)OC)c1,-42.5
O=C(N1CCOCC1)N1CCc2ncnc(-c3ccc(F)cc3)c2CC1,0.7
Cc1ccc(OC(=O)N(C)C[C@H]2OCc3ccccc3-c3ccccc3C(=O)N([C@@H](C)CO)C[C@@H]2C)cc1,-39.2
COc1cccc(C(=O)Nc2ccc3c(c2)C(=O)N(C)[C@H]2CC[C@@H](CC(=O)N[C@@H](C)c4ccccc4)O[C@@H]2CO3)c1,-22.6
Cc1noc(-c2cc(=O)n(CC(=O)Nc3cccc(Cl)c3C)c3ccccc23)n1,30.5
CN1CC2(CCCCN2C(=O)c2ccn[nH]2)CC1=O (stereo not given),-12.7
Cc1cc(C(=O)N(C)C2Cc3ccccc3C2)c(NC(=O)C(C)(C)C)s1,-58.1
Cc1ccc(CN2CCC(CNC(=O)CNC(N)=O)C2)c(C)c1F (stereo not given),-5.6
Cn1cc(S(=O)(=O)Nc2ccccc2N2CCOCC2)c(C(F)(F)F)n1,-23.8
CCn1c(=O)n(C2=C(CO)CN(CC3CCCCCCC3)CC2)c2ccccc21,11.6&9.5
CCOC(=O)CC(=O)Cc1nc(N)nc(Nc2ccc(C)c(C)c2)n1,-9.8
CCCN(CCC)S(=O)(=O)c1ccc(C(=O)Nc2ccc3c(c2)COCO3)cc1,-51.2
COc1cc(NCC2(c3ccccc3)CCN(C)CC2)ncn1,-3.9
CC(=O)c1ccc(NC(=O)c2ncn[nH]2)cc1,27.5
COc1ccc(/C=C/CN2CCN(C3CCN(C(C)C)CC3)C(CCO)C2)cc1 (stereo not given),4.6
COCCNC(=O)C[C@@H]1CC[C@H]2[C@@H](COc3ccc(NC(=O)Nc4cccc(F)c4)cc3C(=O)N2C)O1,4.3
CC(=O)N1[C@H](CN(CC2CCC2)C(=O)CN(C)C)[C@@H](c2ccccc2)[C@@H]1CO,7.6
C[C@@H]1CC2C3CCC4=CC(=O)C=C[C@]4(C)[C@@]3(F)[C@@H](O)C[C@]2(C)[C@H]1C(=O)CO (stereo not given in full),-14.7&7.2
COc1cc(-c2c(-c3ccccc3)ncn2CC(N)=O)c(OC)cc1SC,0.9

# 16 successive compounds already listed, quoted:
SMILES,Tg IFNy HTS
COc1cccc(C(=O)Nc2ccc3c(c2)C(=O)N(C)[C@H]2CC[C@@H](CC(=O)N[C@@H](C)c4ccccc4)O[C@@H]2CO3)c1,-22.6
Cc1noc(-c2cc(=O)n(CC(=O)Nc3cccc(Cl)c3C)c3ccccc23)n1,30.5
CN1CC2(CCCCN2C(=O)c2ccn[nH]2)CC1=O (stereo not given),-12.7
Cc1cc(C(=O)N(C)C2Cc3ccccc3C2)c(NC(=O)C(C)(C)C)s1,-58.1
Cc1ccc(CN2CCC(CNC(=O)CNC(N)=O)C2)c(C)c1F (stereo not given),-5.6
Cn1cc(S(=O)(=O)Nc2ccccc2N2CCOCC2)c(C(F)(F)F)n1,-23.8
CCn1c(=O)n(C2=C(CO)CN(CC3CCCCCCC3)CC2)c2ccccc21,11.6&9.5
CCOC(=O)CC(=O)Cc1nc(N)nc(Nc2ccc(C)c(C)c2)n1,-9.8
CCCN(CCC)S(=O)(=O)c1ccc(C(=O)Nc2ccc3c(c2)COCO3)cc1,-51.2
COc1cc(NCC2(c3ccccc3)CCN(C)CC2)ncn1,-3.9
CC(=O)c1ccc(NC(=O)c2ncn[nH]2)cc1,27.5
COc1ccc(/C=C/CN2CCN(C3CCN(C(C)C)CC3)C(CCO)C2)cc1 (stereo not given),4.6
COCCNC(=O)C[C@@H]1CC[C@H]2[C@@H](COc3ccc(NC(=O)Nc4cccc(F)c4)cc3C(=O)N2C)O1,4.3
CC(=O)N1[C@H](CN(CC2CCC2)C(=O)CN(C)C)[C@@H](c2ccccc2)[C@@H]1CO,7.6
C[C@@H]1CC2C3CCC4=CC(=O)C=C[C@]4(C)[C@@]3(F)[C@@H](O)C[C@]2(C)[C@H]1C(=O)CO (stereo not given in full),-14.7&7.2
COc1cc(-c2c(-c3ccccc3)ncn2CC(N)=O)c(OC)cc1SC,0.9

# Going on with the list.
SMILES,Tg IFNy HTS
CS(=O)(=O)Cc1ccc(N2CCC(N3CCCC3=O)CC2)nc1,1.0
COc1ccccc1CCC(=O)Nc1ccc2c(c1)CCC(=O)N2C,-7.6
CN1CCOC(CCNC(=O)Cc2ccc3c(c2)NC(=O)CO3)C1 (stereo not given),6.1
CCCc1cc(C(=O)N2CCNCC2C(=O)NCc2ccccn2)ccn1 (stereo not given),-44.7
CC1CCCCN1C(=O)c1cc2cccnc2n(Cc2ccc(F)cc2)c1=O (stereo not given),-23.6
Cc1cccc(C(=O)N2CCC3(CC2)Nc2ccc(C)c(C)c2-n2cccc23)c1,24.0
c1coc(CN2CC[C@@H]3[C@H](CO[C@H]3CN3CCOCC3)C2)c1,3.5
CCn1nc(C)c(NC(=O)CNCCS(=O)(=O)N(C)C)c1C,3.1
CCN1CCC2(CN(CC(C)C)CC23CCN(C(=O)c2cc(C)oc2C)CC3)C1=O (stereo not given),-31.4
O=C(NCc1cccc(F)c1)N1CCC2(CC(=O)N(c3ccccc3)C2)C1 (stereo not given),-59.0
Cc1cc(C(F)(F)F)nc(CCNC(C)Cn2nc(C)cc2C)n1 (stereo not given),5.5
CCc1ccc(NC(=O)CN2C(=O)CCc3cc(S(=O)(=O)N4CCC(C)CC4)ccc32)cc1,-77.2*
Cc1ccc(CNC2=NCCNC23CCN(S(=O)(=O)c2cc(C)cc(C)c2)CC3)cc1,-13.4
Cc1cc(S(=O)(=O)NCCCn2ccnc2)c(Cl)cc1Cl,-52.7
CCCN1C[C@@H](C)[C@@H](OC)CN(C)C(=O)c2cc(NC(=O)C3CCC3)ccc2OC[C@@H]1C,10.4
COc1cc(C(=O)N2CCOCC2)cc(OC)c1OC,10.7&12.9
NC(Cc1ccc(O)cc1)C(=O)O (stereo not given),11.1
Cc1ccc2c(c1)C(CC(=O)N1Cc3cnn(CCO)c3C1)C(=O)N2 (stereo not given),24.7
OCCCn1cnc(-c2ccccc2)c1-c1cccc2c1OCO2,61.0
COc1cccc(C(=O)NCCc2csc(-c3ccccc3)n2)c1,491.3
NCC1Cc2cc(-c3ccc(Cn4ccnc4)cc3)cc(F)c2O1 (stereo not given),-39.7
O=C(CN1CCCCC1)Nc1cccc(-n2cnnn2)c1,11.1
Cc1onc(-c2ccccc2)c1C(=O)Nc1c(O)c2cccc(C)c2oc1=O,-8.5
COc1ccc(C[C@H]2CN(C)CC[C@H]2OCC2CC2)cc1,97.9
CCn1nc(C)cc1C(=O)N1CCOC2CCC1C2OC (stereo not given),46.4
CCn1ccnc1CN1CCOC2(COCCN(C(=O)c3ccccc3)C2)C1 (stereo not given),-5.1
CCC(NC(=O)c1sc(-c2ccccn2)nc1C)c1ccc(OC)cc1 (stereo not given),0.1
Cc1ccc2c(c1)C(=O)NC1(CCN(C(=O)Cc3ccccc3C)CC1)N2C,4.3
COc1cccc(CN2CCCC(O)(CNCC(F)F)C2=O)c1OC (stereo not given),-2.5
c1csc(-c2nnc(Cc3ccncc3)c3ccccc23)c1,-90.9*
COc1ccc(N2COc3ccc(OC)cc3C2)cc1,122.4
NS(=O)(=O)c1ccsc1C(=O)N1CCC2(CCCO2)CC1,-7.8
CCc1cc(CN(C)Cc2ccc(C(=O)Nc3nccn3C)cc2)on1,2.3
Cc1nonc1CN(C)C(=O)c1ccc(=O)n(CC(=O)NCc2ccc(F)cc2)c1,9.4
CCCCC(=O)Nc1cccc(C(=O)N(CC)C2CCOC(C)(C)C2)c1 (stereo not given),-0.5
Cc1cccc(C)c1NC(=O)Cn1c(=O)cc(C(=O)N2CCCC2)c2ccccc21,9.5
O=C(c1ccccc1C1CCNC1)N1CCN(c2ccc(F)cc2)CC1 (stereo not given),-19.6
CCn1c(C2CCCN(Cc3cccn3-c3cccnc3)C2)nn(C)c1=O (stereo not given),-28.1
CC(=O)N1CCC2(CCOCC2COc2cnccn2)CC1 (stereo not given),29.3
CC(Cc1ccc2c(c1)OCO2)CN1CCC2(CC1)C(=O)N(Cc1cccnc1)C(=O)N2C (stereo not given),9.3
COCCN1CCOCC2(CCCN(C(=O)c3cn(C)cn3)C2)C1 (stereo not given),2.1
COCCN1C(=O)CCc2cc(NC(=O)c3ccc(C)c(C)c3)ccc21,7.6
Cc1cnc(C)c(-c2cc(N)nc3[nH]ccc23)n1,195.9
Cc1nc2nc(-c3ccc(NC(=O)C(C)N4CCCC4=O)cc3)cn2nc1C (stereo not given),-6.4
O=C(c1ccco1)N1CCC2O[C@@H](COc3cccnc3)CCC21 (stereo not given in full),-3.6
O=C(c1nc2c(s1)CCCN2Cc1ccccc1)N1CCCC1,-2.3
Oc1ccc(-c2cccc3c2CCNC3)cc1-c1ccno1,-14.2
C=CCN1CCOCC2(C1)CN(Cc1cnn(C)c1)CCO2 (stereo not given),-25.6
Fc1ccccc1-c1ccc(C2[C@H]3CNC[C@@H]2N3CC2CC2)cc1 (stereo not given in full),-34.7
COc1ccc(CC(=O)NCC2(c3ccc(OC)c(OC)c3)CCOCC2)cc1,20.8
COC1C(O)[C@@H](O)C(O)C(O)[C@H]1O (stereo not given in full),13.7
CC[C@@H]1C/C=C\CCNC(=O)CCC(=O)N1,33.4
COCc1cc(=O)[nH]c(SCC(=O)C(C)(C)C)n1,-1.7
C/C=C/C(=O)Nc1ccccc1-c1cccc(-n2cccn2)c1,1.8
Cc1ccc(NC(=O)COc2nc(C)nc3ccccc23)c(C)c1,3.3
CNC[C@@H]1Oc2c(N)cccc2C(=O)N([C@H](C)CO)C[C@H]1C,-5.6
CCOC1C2CCC1N(S(=O)(=O)c1ccc(C)cc1)CCO2 (stereo not given),4.7
C[C@@H]1CN([C@H](C)CO)C(=O)CCCn2cc(nn2)CO[C@@H]1CN(C)S(=O)(=O)c1ccc(-n2cccn2)cc1,226.9
O=C(CN1CCOCC1)N1CC2(C1)[C@H](c1ccccc1)[C@@H](CO)N2Cc1cccc(F)c1,-9.6
CN1C(=O)CCc2cc(C(=O)NC3CC3)ccc21,47.8
# Carrying on.
SMILES,Tg IFNy HTS
O=C1CCCN1CC1CN(CC2CCOC2)Cc2nccn2C1 (stereo not given),0.1
ON(Cc1cccc(C(F)(F)F)c1)Cc1cccc(C(F)(F)F)c1,95.0
CS(=O)(=O)N1CCC2O[C@@H](COc3cccnc3)CCC21 (stereo not given in full),85.6
Cc1ccccc1NC(=O)N1CCC[C@@]2(C(=O)N(C)C)CN(c3ccccn3)C[C@H]2C1,-18.5
COCCNC(=O)C[C@@H]1CC[C@@H]2[C@H](COC[C@@H](O)CN2C(=O)c2cc(Cl)cc(Cl)c2)O1,-18.1
O=C(Nc1ccc(Sc2cccs2)cc1)c1ccc(Cl)cc1,-62.2
COC(=O)c1cnc(SCC(=O)Nc2cccc(Cl)c2)n1C,34.3
C[C@H](CO)N1C[C@H](C)[C@H](CN(C)C(=O)Nc2cccc3ccccc23)Oc2ccc(NS(=O)(=O)c3cn(C)cn3)cc2C1=O,22.9
CS(=O)(=O)CC(=O)N1C[C@@H]2CN(CC3CCCC3)CCO[C@@H]2C1,-5.5
OCCC#Cc1ccc(C2NCCc3[nH]cnc32)cc1 (stereo not given),-53.8
Cc1cccc(C2(CNC(=O)CCn3cnnn3)CCOCC2)c1,9.9
COCCCNC(=O)Cn1ncc2c(N3CCN(c4ccccc4)CC3)ncnc21,108.2
CCCCNc1c(C(=O)OC)c(=O)[nH]c2ccc(F)cc12,14.0
CCS(=O)(=O)N1C[C@H]2COC[C@H](c3nc(C)no3)[C@H]2C1,-8.4
Cc1cccc(CC(=O)NCCc2sc(-c3cccc(F)c3)nc2C)c1,46.7
O=C(NCc1cccnc1)C1CC2CN(Cc3ccccc3)CC1O2 (stereo not given),7.8
CN(C)CCNC(=O)c1ccc2nnc(C3CCN(Cc4ccccc4)C3)n2c1 (stereo not given),-12.0
S=C(NCc1ccccc1)Nc1ccc(Br)cc1,66.4
Cc1ccc(S(=O)(=O)NCc2ccccc2)cc1,14.4&20.6
Cc1cc(-c2noc(-c3cccs3)n2)no1,i
O=C(c1ccc(-n2cnnc2)cc1)N1C[C@H]2CC=CC[C@H]2C1,12.0
CS(=O)(=O)N1CCn2cc(CNC(=O)C3CCC3)nc2C1,-1.5
Cc1nc2c(O)cccc2c(=O)[nH]1,12.3&-5.8
O=C(C[C@@H]1CC[C@H]2[C@@H](COC[C@H](O)CN2Cc2ccc3c(c2)OCO3)O1)N1CCCCC1,7.8
C[C@@H]1CN([C@H](C)CO)C(=O)c2ccccc2-c2ccccc2CO[C@@H]1CN(C)S(=O)(=O)c1cccs1,-13.3
O=c1c2ccccc2nc(/C=C/c2cn(Cc3ccccc3)c3ccccc23)n1CCCO,-30.5
COC(=O)c1c(NCCc2ccc(Cl)cc2)c2cc(F)ccc2[nH]c1=O,-94.2*
CC(C)COc1ccc(-c2noc(-c3c(O)c4ccc(F)cc4[nH]c3=O)n2)cc1,-21.1
